# Vaccinia pol inh: vaccinia E9 polymerase processive synthesis inhibition. in vitro processive DNA synthesis, absorbance read-out; hits give low values; some inactives read as strong as hits. normalized absorbance, % (concentration not given with the values). actives 0.94% (n = 46,000). AID 493162;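 active means replicate mean up to 90% and picked by the depositor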;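 further: 100% = median of the test wells of a plate; 100 nL library stock went into each well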
# The depositor's hits bear a star; & = joins results of further samples. The list is partial; rates above refer to the full screens.
smiles	Vaccinia pol inh
CC(O)CNC(=O)c1sc2ccccc2c1Cl (stereo unspecified)	95.9
CCC1SC2=NCN(c3ccccc3)CN2C1=O (stereo unspecified)	100.1
O=C(O)Cc1ccc2ocnc2c1	98.7
CC1=C(C(=O)OCc2ccccc2)C(c2ccccc2)NC(=O)N1C (stereo unspecified)	99.7
COc1ccc(-c2coc3c(C)c4oc(=O)c5c(c4cc23)CCCC5)cc1F	99.8
COc1ccc(C(C#N)OC(C)=O)c(OCc2ccccc2)c1OC (stereo unspecified)	102.2
CCn1c(=O)cc(SCC(=O)NCCCN2CCCC2)c2ccccc21	99.2
COc1cc(OC)cc(-n2c(=O)c3ccccc3n(Cc3cc(=O)n4ccccc4n3)c2=O)c1	102.0
C=CCn1c(=N)c(C(=O)OC)cc2c(=O)n3cccc(C)c3nc21	99.9
CCCC1C(c2ccccc2)C2(C#N)C(=O)NC1(O)CC2(C#N)C#N (stereo unspecified)	99.6
Cc1nc(-n2nnc3cc(C)c(C)cc32)c2c3c(sc2n1)CCCC3	100.1
COC(=O)c1sccc1Oc1ccc(C(F)(F)F)cc1NC(=O)/C=C/C(=O)O	93.5
COc1ccccc1-c1nnc(NC(=O)CCSc2ccccc2)o1	103.0
O=C(C1Cc2ccccc2CN1S(=O)(=O)c1ccc(F)cc1)N1CCOCC1 (stereo unspecified)	91.5
CC1=C(C#N)C(c2ccccc2)C(C#N)=C(C)N1	96.2
O=C(Nc1cccc(C(F)(F)F)c1)N1CCOC12CCCCC2	101.9
O=C(COc1ccccc1F)OCCN1CCCC1	104.8
Cc1ccc(C2CC(=O)Nc3sc(C(N)=O)c(N)c32)cc1 (stereo unspecified)	100.4
COc1ccc(CNC(=O)C2=Cc3sc(C)c(C)c3CS2)cc1	103.0
NC(=O)c1ccccc1N=c1cc(-c2ccccc2)oc2ccc(Cl)cc12	99.8
CCOC(=O)c1c(C)n(C2CCCCC2)c2ccc(O)cc12	99.3
O=C(Oc1ccc(OC(=O)c2ccccc2)cc1)c1ccccc1	98.4
O=C(Nc1ccc(N2CCOCC2)cc1Cl)C1CCN(C(=O)OCc2ccccc2)CC1	107.9
Nc1ccccc1C(=O)Nc1cc(C(=O)O)cc(C(=O)O)c1	99.1
C=CCn1c(=S)n(CC=C)c2ccccc21	100.0

# A draw from above in order of length of the SMILES, lowest first:
smiles	Vaccinia pol inh
CCOC(=O)c1c(C)n(C2CCCCC2)c2ccc(O)cc12	99.3
COc1ccc(C(C#N)OC(C)=O)c(OCc2ccccc2)c1OC (stereo unspecified)	102.2
O=C(C1Cc2ccccc2CN1S(=O)(=O)c1ccc(F)cc1)N1CCOCC1 (stereo unspecified)	91.5

# Next entries
smiles	Vaccinia pol inh
Cc1ccc(COc2ccc(/C=C3/C(=N)N4C=CSC4=NC3=O)cc2Br)cc1	100.2
O=C(O)c1ccc(Cn2nc(N3CCCCC3)ccc2=O)o1	88.2
COc1cccc2cc(C(C)O)oc12 (stereo unspecified)	95.3
Cc1ccnc(N2C(=O)c3ccccc3C2Nc2ccc(Br)c(C)c2)c1 (stereo unspecified)	104.5
O=c1c2ccccc2c2n[nH]c(O)c3ccc(=NC4CCCCC4)c1c32	100.3
Cn1nnc(-c2ccc(OCc3ccccc3F)cc2)n1	99.9
COc1ccc(C(=O)NCc2ccc3c(c2)CCO3)cc1	101.0
CC1CCN(C(=O)C2c3ccccc3Oc3ccccc32)CC1	98.3
O=C(Cc1ccccc1)Oc1ccc(N=Cc2cccs2)cc1	100.9
CC(Sc1ccccc1)C(=O)Nc1ccc(CC#N)cc1 (stereo unspecified)	96.8
CCOC(=O)c1c(C)oc2c1c1c(c3ccccc32)OCN(CCO)C1	74.4
CCOC(=O)C(C)Sc1ncnc2c1oc1ccccc12 (stereo unspecified)	102.1
COCc1ccc2oc(C(=O)O)cc2c1	98.4
O=S(=O)(c1ccccc1F)N1CC=C(c2ccccc2)CC1	112.7
Cc1cc(C)cc(NC(=O)CSCc2cnn(-c3ccccc3)c2-n2cccc2)c1	97.6
C=C(C)CS(=O)(=O)c1ccccc1	92.6
CN(Cc1nc(-c2ccccc2)cs1)C(=O)NC1(c2ccccc2)CC1	100.3
Cc1cc(C)cc(N2C(=O)/C(=C\c3ccc(N4CCCCC4)cc3)C(=O)NC2=S)c1	99.6
COc1ccc(-c2nc3ccccc3c(=O)o2)cc1OC	112.9
Nc1cc(-c2ccccc2)c2ccccc2n1	94.5
Cc1ccc(-c2ccc(=O)n(CCC(=O)NCCN3C(C)CCCC3C)n2)cc1 (stereo unspecified)	84.9
CC(C)c1oc2cc(O)ccc2c(=O)c1-c1nc2ccccc2n1C	99.4
CCn1cc(C(=O)O)c(=O)c2cc(S(=O)(=O)N(C)C)ccc21	102.5
c1ccc(OCCSc2nnnn2-c2ccccc2)cc1	98.4
CCOC(=O)c1cc(CN2CCOCC2)c(C)o1	97.4
C=CCn1c(N)c(C(=O)NCc2ccccc2)sc1=S	100.3
Cc1ccccc1NC1(C#N)CCCCC1	100.6
c1cnc(Oc2ccc(-n3cccc3)cc2)nc1	97.8
CCOC(=O)C1C(=O)C=C(c2ccco2)CC1c1ccccc1 (stereo unspecified)	91.0
O=C(CSc1nc2c(c(=O)n1-c1ccccc1)SCC2)NCC1CCCO1 (stereo unspecified)	99.2
Brc1cc(Br)cc(CN2CCOCC2)c1	80.5
COC(=O)C1CCC2C3CC=C4CC(O)CCC4(C)C3CCC12C (stereo unspecified)	104.3
CCOC(=O)c1sc(C)c2c1NC(c1ccc(N(C)C)cc1)NC2=O (stereo unspecified)	99.7
CC(C)(C)C1=Nn2c(nnc2-c2ccccc2)SC1	98.3
Cc1ccccc1NC(=O)C(NS(=O)(=O)c1ccc2c(c1)c(=O)n(C)c(=O)n2C)c1ccccc1 (stereo unspecified)	103.2
Cc1ccc(CSc2nc3ccccc3c(=O)n2-c2ccc(C(=O)N3CCOCC3)cc2)cc1	94.0
CN1C2CCC1CC(NC(=O)Cc1ccccc1F)C2 (stereo unspecified)	97.3
N#Cc1c(NC(=O)CN2C(=O)CCC2=O)sc2c1CCCC2	99.7
CCOc1ccc(NCC(=O)Nc2ccc(F)cc2)cc1	103.6
COC(=O)Cc1c(-c2ccccc2)c2cc(C)ccc2[nH]c1=O	100.8
CC(C)CN(CC(C)C)S(=O)(=O)c1ccc(CCN2C(=O)c3cccnc3C2=O)cc1	92.2
CCCNC(=O)c1ccccc1OC(C)=O	101.7
O=C(Nc1cccc(C(F)(F)F)c1)c1ccc2ccccc2c1	98.7
Cc1cc(=S)nc(-c2ccccn2)[nH]1	101.8
Cc1sc2ncnc(Sc3ccccc3)c2c1C	97.5
O=C1C2SCCN2C(=S)N1c1cccc(C(F)(F)F)c1 (stereo unspecified)	99.4
Cc1ccc(S(=O)(=O)Nc2ccccc2N=Cc2ccc[nH]2)cc1	76.5
Cc1cc(C)c(C#N)c(SCC(=O)C(C)(C)C)n1	96.3
COc1cccc(NC2=CC(=O)CC(C)(C)C2)c1	100.9
Nc1nonc1NC(=O)CSc1ncccc1C(=O)O	100.0

# (next part)
smiles	Vaccinia pol inh
CSC1=N/C(=C\c2ccc(Cl)cc2)C(=O)N1CCc1c[nH]c2ccccc12	101.9
CS(C)=C1C(=O)NC(=O)N(c2ccccc2F)C1=O	100.6
O=C(Cn1c2c(c(-c3ccccc3Cl)cc1=O)CCC2)NC1CC1	91.9
CC(=O)Nc1ncc(Cc2cccc(Cl)c2)s1	99.9
CC1(c2ccccc2)Nc2ccccc2-c2nc3ccccc3n21 (stereo unspecified)	89.7
CC(=O)Nc1ccc(C(=O)OCC(=O)N2CC3(C)CC2CC(C)(C)C3)cc1 (stereo unspecified)	92.3
CC1CCC(C(C)C)C(=O)/C1=C/c1ccc(N)cc1 (stereo unspecified)	100.1
O=C(NCC12CC3CC(CC(C3)C1)C2)c1nc2ncccn2n1	98.9
Cc1nnc(SCC(=O)Nc2ccc3c(c2)OCCO3)s1	91.9
Cc1ccc2cc(CCNC(=O)c3ccco3)c(=O)[nH]c2c1	98.0
CCC1(C)CC(CC(=O)OC(C)CN(C)C)(c2ccccc2)CCO1 (stereo unspecified)	101.6
Cn1c(-c2ccc3ccccc3n2)[n+](C)c2ccccc21	99.6
COc1ccc(CC(=O)Nc2nnc(SCc3ccccc3)s2)cc1OC	101.6
CS(=O)(=O)n1cc(C(F)(F)F)ccc1=O	106.7
Cc1onc(-c2ccccc2)c1-c1ccnn1S(=O)(=O)c1ccc(Cl)cc1	100.8
CNC(=O)n1c(C(F)(F)F)nc2ccccc21	100.6
COC(=O)CCc1nc2cc(Cl)ccc2n(Cc2ccccc2)c1=O	97.8
CC(=O)O[C@H]1C(=O)[C@@]2(C)C([C@H](OC(=O)c3ccccc3)[C@]3(O)C[C@H](OC(=O)[C@H](O)[C@@H](NC(=O)c4ccccc4)c4ccccc4)C(C)=C1C3(C)C)[C@]1(OC(C)=O)CO[C@@H]1C[C@@H]2O (stereo partly specified)	100.1&100.0
O=C1/C(=C/c2cccc(F)c2)CS/C1=C\c1cccc(F)c1	99.7
O=S(=O)(NCC1CCCO1)c1cccc2cccnc12 (stereo unspecified)	101.1
COc1ccc(N=Cc2ccc(N(C)CCC#N)cc2)cc1	96.2
CCCCN(C)C(=O)c1[nH]c2ccccc2c1Sc1ccc(Cl)cc1	103.4
N#Cc1cnoc1N1CCCc2ccccc21	99.7
Cc1cccc(CSc2nc3c(cnn3-c3ccc(Cl)cc3)c(=O)[nH]2)c1	99.7
CN1CCN(Cc2nc(/C=C/c3cc(C(F)(F)F)cc(C(F)(F)F)c3)no2)CC1	104.6
CCc1ccc(NC(=O)c2cc3c(s2)-c2ccccc2S(=O)(=O)C3)cc1	102.5
O=C(O)CCc1nc(=S)[nH][nH]1	99.5
C(=N\n1cnnc1)/c1ccccc1	103.4
CCC[N+]1(C)CCC2C(C1)c1ccccc1N2Cc1ccccc1 (stereo unspecified)	100.1
CC1CCc2[nH]c3ccc(C(=O)O)cc3c2C1 (stereo unspecified)	100.0
CC(C)(C)CC(=O)NCc1ccc(S(N)(=O)=O)cc1	97.9
O=c1cc(CCl)c2cc3c(cc2o1)CCC3	100.2
COc1cc2c(cc1OC)C1=C(C#N)CCC(=O)N1CC2	99.9
CN(C(=O)Cn1ncc2c(=O)oc3ccccc3c21)c1ccccc1	100.4
CN(C)c1cccc(C(=O)OCC(=O)N(C)c2ccccc2)c1	80.5
O=C(NCc1ccccc1)C1CCN(S(=O)(=O)c2cccs2)CC1	100.8
CCOC(=O)c1cc(-c2ccc(F)cc2)n(CC(=O)N2CCc3ccccc3C2)c1C	109.0
COc1ccccc1-c1c(C#N)c(C)nc(C)c1C#N	119.0
O=C(Nc1ccc(Cl)cc1)OC1CN2CCC1CC2 (stereo unspecified)	100.6
NC(=O)CN1CCCCCC1=O	100.5
CC(=O)Nc1ccc(NC(=O)CSc2ccccc2C)cc1	106.5
CCn1c(=O)cc(OCC(=O)NC2CCCC2)c2ccccc21	102.8
Cc1nc2ccc(-c3nc4ccc(NC(=O)c5cccs5)cc4[nH]3)cc2[nH]1	100.3
N=c1nc(-c2ccccc2)ccn1O	100.3
Fc1ccc(Cn2cccc2C2=NC(c3ccccc3)CO2)cc1 (stereo unspecified)	105.8
N#C/C(=C\c1ccsc1)S(=O)(=O)c1ccc(C(F)(F)F)cn1	102.4
O=C1Nc2ccccc2/C1=C\c1cn(CC(=O)N2CCCC2)c2ccccc12	92.8
Cc1cccc(NC2=NCCCS2)c1	99.4
CCCCn1c(-c2ccc(N)cc2)nc2ccccc21	90.6
COc1ccc(OC)c(C2C(C(=O)Nc3ccccn3)=C(C)NC3=C2C(=O)CCC3)c1 (stereo unspecified)	100.0

# A second format for some results above:
structure: CCc1ccc(NC(=O)c2cc3c(s2)-c2ccccc2S(=O)(=O)C3)cc1
  Vaccinia pol inh: 102.5

structure: O=C(O)CCc1nc(=S)[nH][nH]1
  Vaccinia pol inh: 99.5

structure: C(=N\n1cnnc1)/c1ccccc1
  Vaccinia pol inh: 103.4

structure: CCC[N+]1(C)CCC2C(C1)c1ccccc1N2Cc1ccccc1 (stereo unspecified)
  Vaccinia pol inh: 100.1

# (further entries)
smiles	Vaccinia pol inh
Cc1ccn2cc(CSc3ncccn3)nc2c1	96.5
Cc1cc(/C=C2\CCC(C3CCCC3)C2=O)c(C)n1-c1ccccc1 (stereo unspecified)	102.5
NC(Cc1ccccc1F)C(=O)O (stereo unspecified)	99.4
O=C(Nc1cc(C(F)(F)F)ccc1N1CCc2ccccc2C1)c1ccccc1	90.4
O=S(c1cccc(C(F)(F)F)c1)c1ccc2nnc(Cl)n2n1 (stereo unspecified)	88.2
O=C(CCc1nc2cccnc2n1-c1ccccc1)NCc1ccccc1	100.4
O=C(OCc1ccc(Br)cc1)c1ccc(Br)o1	103.0
COc1cccc(-c2nn(C)c3sc(C(=O)N4CCCc5ccccc54)cc23)c1	87.4
O=c1[nH]cnc2c1nnn2Cc1ccc(F)cc1	104.8
Cn1cc(C=C2C(=O)CC(C)(C)CC2=O)c2ccccc21	83.2
C=CCn1cnc2c(NCc3ccccc3)ncnc21	90.4
Cc1sc2c(c1C)C(O)=C(C(=O)Nc1ccc(Cl)cc1)S(=O)(=O)N2C	104.3
O=C(Cc1cccc2ccccc12)Nc1ccc(I)cc1	96.3
C=CCN1C(=O)/C(=C/C=c2\c3cccc4cccc(c43)n2CC)SC1=S	100.4
Cc1ccc2nc(C(O)C(O)c3nc4ccc(C)cc4[nH]3)[nH]c2c1 (stereo unspecified)	108.8

# Screening data as filed in PubChem.
